Mtb bLac sens – beta-lactam sensitization of Mtb H37Rv | inhibition, % at 25 µM | M. tuberculosis H37Rv growth with meropenem, percent inhibition; hits of this screen are not shown here | 330,000 compounds, 0.27% hits;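 active = about 74% or more and at least 40 points above the plate without the antibiotic, then above 30% in a dose series; inconclusive = first-round hits that could not be retested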;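 note: growth measured after seven days incubation then overnight dye step; 0% = bacteria only wells and 100% = bacteria with antibiotic; twin plates without the antibiotic show which effects depend on it; some results filed as inactive read as strong as hits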
RecA intein inh – inhibitors of M. tuberculosis RecA intein splicing. inhibition, %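 (about 9 µM by stock and volumes)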. cell-free RecA intein splicing, fluorescence. AID 2221. 290,000 compounds, 0.75% hits. P9WHJ3; in the data active = inhibition above about 30%; inconclusive = no clear call, values can overlap the other calls;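 note: 0% = vehicle wells and 100% = reference inhibitor control wells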
Target sequence (P9WHJ3 whole entry, looked up): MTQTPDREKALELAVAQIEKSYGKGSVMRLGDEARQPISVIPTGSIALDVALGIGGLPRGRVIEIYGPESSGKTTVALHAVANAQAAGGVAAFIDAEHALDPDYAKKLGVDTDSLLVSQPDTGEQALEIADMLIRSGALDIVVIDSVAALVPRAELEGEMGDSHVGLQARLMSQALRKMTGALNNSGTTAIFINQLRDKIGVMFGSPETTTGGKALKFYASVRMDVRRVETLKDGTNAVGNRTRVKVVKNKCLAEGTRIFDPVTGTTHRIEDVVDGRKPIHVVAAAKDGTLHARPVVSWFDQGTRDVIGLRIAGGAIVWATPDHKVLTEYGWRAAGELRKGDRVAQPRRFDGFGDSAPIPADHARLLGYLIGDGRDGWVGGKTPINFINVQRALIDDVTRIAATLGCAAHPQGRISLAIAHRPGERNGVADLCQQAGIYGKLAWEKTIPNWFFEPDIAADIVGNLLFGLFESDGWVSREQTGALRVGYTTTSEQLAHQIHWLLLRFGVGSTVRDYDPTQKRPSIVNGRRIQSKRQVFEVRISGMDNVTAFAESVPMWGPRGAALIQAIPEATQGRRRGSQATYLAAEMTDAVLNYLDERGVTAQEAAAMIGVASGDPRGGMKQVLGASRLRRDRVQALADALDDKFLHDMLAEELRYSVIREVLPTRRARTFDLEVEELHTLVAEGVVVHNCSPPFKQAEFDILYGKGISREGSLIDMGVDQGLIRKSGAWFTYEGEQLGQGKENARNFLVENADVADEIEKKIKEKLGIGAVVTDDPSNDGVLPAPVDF
YopH PTP inh – inhibitors of Yersinia enterocolitica YopH tyrosine phosphatase. fluorescence Ex485/Em525. inhibition, %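 (about 10 µM by stock and volumes)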. 140,000 compounds, 0.16% hits. AID 898;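 active = inhibition of 50% or more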;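 note: controls were vehicle for no effect and minimum signal wells for full effect; inactives centre near -20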
Mtb H37Rv – M. tuberculosis H37Rv growth inhibitors, H37Rv strain (AID 1626) | M. tuberculosis H37Rv growth inhibition; higher % means a stronger effect | inhibition, % at 10 µM, or IC50 in µM where a hit was titrated | 220,000 compounds, 0.95% hits;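 active = confirmed in a dose series; inconclusive = inhibition above 80% but not taken into the dose series; inactive = below 80% or under 30% at every dose of the series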;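 note: bacteria incubated seven days before Alamar blue readout; 0% = bacteria only wells and 100% = bacteria with antibiotic wells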
Arbovirus anti – antivirals against arbovirus infection; arbovirus infection cell-based antiviral screen; inhibition, % at 10 µM; 200,000 compounds, 0.37% hits; AID 1251;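 active = inhibition from about 30%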;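 note: bluetongue infection of BSR cells; cell survival read as ATP light after 72 h; 0% = infected wells without compound and 100% = uninfected wells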
Arbovirus anti repeat – recorded beside Arbovirus anti, whose call it bears; inhibition, %; measured here: 10K subset replicate screen; many hits read low in the repeat;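 first of two repeat runs on a subset; 0% = infected and 100% = uninfected wells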
The depositor's hits bear a star; ? = inconclusive; . = not tested or not shown. These rows are one share of the data. The share of hits here may be higher or lower than overall.

SMILES	Mtb bLac sens	RecA intein inh	YopH PTP inh	Mtb H37Rv	Arbovirus anti	others
O=C(COc1ccc2c(c1)oc(=O)c1ccccc12)NC(Cc1ccc(Cl)cc1)C(=O)O (configuration not stated)	-2	-2.6	.	.	.
CC1=CC(=C(C#N)C#N)C=C(C)N1Cc1ccc(Cl)cc1	-2	-4.3	.	2%	8
C/C(=N\Nc1ccccn1)c1ccc(N2CCOCC2)cc1	3	-2.3	.	10%	2
CCOc1c(Cl)cc(Cl)cc1CNCCNCCO	5	0.0	-38	-3%	6
O=C(Nc1ccccc1C(=O)NCC1CCCO1)c1ccco1 (configuration not stated)	3	3.4	3	-6%	-2
Nc1nc(Cl)nc(N(c2ccccc2)c2ccccc2)n1	-8	1.6	-14	-2%	0
Cc1ccc(NS(=O)(=O)c2cccc3nsnc23)cc1C	-4	1.0	.	.	.
CCOC(=O)N1CCN(C(=O)c2ccc(NC(=O)CC)cc2)CC1	-6	-5.2	11	-2%	13
Cc1ccc(CN2C(=O)c3ccccc3Sc3ccc(C(=O)NCCN4CCOCC4)cc32)cc1	2	3.6	.	.	.
CC(C(=O)N1CCOCC1)N1C(=O)C2C3C=CC(C4CC34)C2C1=O (configuration not stated)	-14	-0.3	.	2%	1
CCN(CC)S(=O)(=O)c1cc(C(=O)Nc2nncs2)c(Cl)cc1Cl	-10	5.3	-16	-10%	11
COCCCNC(=O)CCCCCNS(=O)(=O)c1ccc(Br)cc1	3	-3.5	.	0%	0
O=C(Nc1nc(-c2ccccc2Cl)cs1)c1cccnc1	-7	.	-12	7%	6
O=C1NCCCC1C(=O)Nc1cccc(C(F)(F)F)c1 (configuration not stated)	-4	-1.4	-50	4%	-2
Cn1cc(S(=O)(=O)N2CCc3ccccc3C2)c(=O)n(C)c1=O	4	11	-20	-1%	0
CCCCOc1ccccc1NC(=O)c1scc2c1OCCO2	.	4.0	.	9%	4
Cc1cc(C)c(S(=O)(=O)NCCc2ccncc2)c(C)c1	-1	0.8	.	.	.
O=C(CNS(=O)(=O)c1c(Cl)cccc1Cl)OCc1csc(-c2ccccc2)n1	-5	6.9	-37	1%	5
COc1ccccc1NS(=O)(=O)c1cccc(C(=O)NCC(c2ccc(F)cc2)N2CCOCC2)c1 (configuration not stated)	-6	1.9	.	.	.
CCOC(=O)N1CCN(CCC(=O)Nc2ccc(OC)cc2)CC1	-6	3.7	-21	-13%	-7
CCn1c(=O)n(CC)c2cc(S(=O)(=O)NCCOc3ccccc3)c(C)cc21	0	3.3	-12	-15%	-4
CCOC(=O)N1N=C(C)CC1(O)c1ccccc1 (configuration not stated)	1	-4.0	-9	11%	7
CC(CNC(=O)c1ccc2c(c1)OCO2)c1ccc([N+](=O)[O-])cc1 (configuration not stated)	-2	-2.6	.	7%	1
COc1cc(NC(=O)c2cccc(F)c2)cc(OC)c1OC	4	-2.7	.	-1%	-5
[O-][n+]1c2c(nc3c1-c1ccccc1C3O)CCCC2 (configuration not stated)	-4	41*	.	-13%	-18
SMILES	Mtb bLac sens	RecA intein inh	YopH PTP inh	Mtb H37Rv	Arbovirus anti	others
O=C(COc1nnnc2ccccc12)N1CCCc2ccccc21	2	-2.0	11	-4%	-4
Cc1ccc(S(=O)(=O)NCCCCC(NC(=O)OC(C)(C)C)C(=O)O)cc1 (configuration not stated) (tested in a mixture with another compound)	1	1.1	-29	-6%	-4
Cc1ccc([N+](=O)[O-])cc1S(=O)(=O)N1CCCC1	-12	-2.2	-5	4%	3
CCOC(=O)C1=C(CC)Nc2ccccc2N=C1NC(=O)CCN1C(=O)C2CCCCC2C1=O (configuration not stated)	-17	-0.4	.	25%	8
COc1cc(C(=O)NCC(=O)N/N=C/c2c(C)[nH]c3ccccc23)cc(OC)c1OC	8	-0.1	.	5%	.
Cc1ccc(N2C(=O)C(CC(=O)Nc3cccc(F)c3)N(CCc3ccncc3)C2=O)cc1 (configuration not stated)	-13	1.2	.	2%	8
Cc1ccc(/C=C(\CCC(=O)O)c2nc3ccccc3s2)cc1[N+](=O)[O-]	6	11	-28	-6%	23
O=C(C(=O)N1CCN(c2ccccc2)CC1)c1cn(CC(=O)N2CCCCCC2)c2ccccc12	-10	-1.2	.	.	.
NC(=O)c1ccc(/C=N/O)nc1	1	1.1	.	-2%	0
COc1ccc(NC(=O)Nc2cccs2)cc1Cl	-4	2.1	.	?	3
Cc1cc(N2C(=O)CC(Cc3ccc(Cl)cc3)C2=O)no1 (configuration not stated)	8	-3.4	-2	-5%	7
Cc1ccc(S(=O)(=O)Nc2cc3c(cc2N2CCOCC2)n(C)c(=O)c(=O)n3C)cc1	?	2.8	.	.	.
COc1ccc(NC(=O)c2ccc(C)cc2)cc1	-1	-2.3	.	.	.
COc1ccc(C2(O)CCN(C(=O)c3c(F)cccc3F)CC2)cc1	4	-0.9	4	-5%	1
C=CCn1cc(C(=O)c2cc(Br)ccc2O)cc(C#N)c1=O	2	3.6	.	4%	.
O=C(NCCCn1ccnc1)/C(=C\c1ccco1)NC(=O)c1ccco1	-1	-2.9	.	0%	3
COc1cccc(CN2C(=NC(=O)CCC3CCCC3)SC3CS(=O)(=O)CC32)c1 (configuration not stated)	-8	4.6	.	.	.
COc1ccc(CCC(=O)OCC(=O)Nc2ccccc2OC(F)F)cc1OC	5	-0.4	.	2%	0
c1ccc(CNc2nc(-c3cccnc3)cs2)cc1	7	3.6	.	13%	17
COCCCNc1nc2ccccc2nc1NS(=O)(=O)c1ccc(Cl)cc1	0	-1.0	.	.	.
CC(NC(=O)c1ccc(OC2CCN(Cc3ccccn3)CC2)cc1)c1ccccc1 (configuration not stated)	-6	0.9	.	1%	1
NNC(=O)c1cccc(S(=O)(=O)Nc2cc(Cl)ccc2Cl)c1	-6	2.4	.	-1%	.
CC1(NC(=O)CCc2nc3sc4c(c3c(=O)[nH]2)CCCC4)CCS(=O)(=O)C1 (configuration not stated)	1	-0.4	.	.	.
C/C(N)=C(/C#N)C(=O)COC(=O)CCSc1ccccc1Cl	-7	3.4	-34	-3%	4
CCOc1ccc(NC(=O)CN2CCN(CC(=O)Nc3ccc(F)cc3)CC2)cc1	53	0.7	-44	10%	4

Filtered by structure, the entries above with a cyano group (3)
SMILES	Mtb bLac sens	RecA intein inh	YopH PTP inh	Mtb H37Rv	Arbovirus anti	others
CC1=CC(=C(C#N)C#N)C=C(C)N1Cc1ccc(Cl)cc1	-2	-4.3	.	2%	8
C=CCn1cc(C(=O)c2cc(Br)ccc2O)cc(C#N)c1=O	2	3.6	.	4%	.
C/C(N)=C(/C#N)C(=O)COC(=O)CCSc1ccccc1Cl	-7	3.4	-34	-3%	4

The results go on:
SMILES	Mtb bLac sens	RecA intein inh	YopH PTP inh	Mtb H37Rv	Arbovirus anti	others
S=C1NCCNC(=S)NCCOCCN1	-5	-2.1	.	2%	5
CCC1CCCCN1C(=O)N[C@@H](Cc1ccccc1)C(=O)O (some centres not stated)	-1	-1.2	-46	-6%	12
COCCN(C(=O)CNC(=O)c1ccco1)C(C(=O)NC1CCCCC1)c1cccnc1 (configuration not stated)	5	-1.8	.	.	.
Cc1cc2nc(/C(C#N)=C/c3ccncc3)[nH]c2cc1C	14	0.6	.	91%	-6
CCOC(=O)c1ccc(Oc2cc(C)nc(Cl)n2)cc1	0	0.0	.	-7%	.
O=[N+]([O-])c1cc(-c2cnc3ccccc3n2)ccc1Cl	-3	.	.	-6%	-7
Cc1cc(-c2nnc(CCC(=O)N3CCN(Cc4cccc(F)c4)CC3)o2)c(C)o1	5	0.4	.	3%	4
COc1ccc(CCNCC(O)COc2cccc(Br)c2)cc1OC (configuration not stated)	-3	-1.6	.	-3%	.
CCCCn1c(N)c(N(CC)C(=O)c2ccccc2C)c(=O)[nH]c1=O	3	1.4	.	.	.
CC(=O)c1c(C)[nH]c(C(=O)COc2cc(C)ccc2C(C)C)c1C	-21	6.7	-12	0%	-2
COC(=O)c1ccccc1NC(=O)CSc1nccc(C)n1	1	0.4	.	4%	1
COc1ccc(N(CC(=O)NCCc2ccccc2)C(=O)CCC(=O)Nc2ccccn2)cc1	-11	-1.5	.	.	.
CCN(CC)S(=O)(=O)c1ccc(Cl)c(NC(=O)COC(=O)c2ccc(O)cc2)c1	0	1.3	.	-4%	19
CCOC(=O)C1CCCCN1S(=O)(=O)c1cc2c(cc1C)NC(=O)CO2 (configuration not stated)	1	0.4	.	.	.
CCC(C)NC(=O)C(=O)NCC1CCCN1CC (configuration not stated)	-3	.	.	.	4
Cc1ccccc1-n1c(SCC(=O)N(C)C2CCS(=O)(=O)C2)nnc1-c1ccncc1 (configuration not stated)	-4	0.2	.	-1%	15
CCN=C1SC(C(=O)Nc2cccc(Br)c2)CC(=O)N1CC (configuration not stated)	3	-0.8	-40	6%	4
O=C(NCCNC(=O)c1ccc(F)cc1)c1ccc(F)cc1	-8	0.6	.	.	.
Cn1cc([N+](=O)[O-])c(C(=O)NCc2ccccc2)n1	16	-3.8	.	-4%	.
CCOC(=O)C(=CNc1cccc(N)n1)C(=O)OCC	12	-3.3	-33	-8%	0
N#C/C(=C\c1ccc(O)c(O)c1)C(=O)Nc1cccc2ncccc12	0	-53	.	.	.
Cc1[nH]nc2c1/C(=N\O)CC(C)(C)C2	4	2.5	-53	-1%	2	Arbovirus anti repeat=-2
O=[N+]([O-])c1cccnc1N1CCCNCC1	0	2.7	.	.	.
CCOC(=O)N1CCN(C(=O)CSc2nnc(-c3ccc(Cl)s3)o2)CC1	100	-2.1	-33	?	.
CSc1nc(N)nc(C(C)C)n1	-2	0.6	.	0%	.

Overlap with the part before: 5 compounds, followed by the next part.
SMILES	Mtb bLac sens	RecA intein inh	YopH PTP inh	Mtb H37Rv	Arbovirus anti	others
N#C/C(=C\c1ccc(O)c(O)c1)C(=O)Nc1cccc2ncccc12	0	-53	.	.	.
Cc1[nH]nc2c1/C(=N\O)CC(C)(C)C2	4	2.5	-53	-1%	2	Arbovirus anti repeat=-2
O=[N+]([O-])c1cccnc1N1CCCNCC1	0	2.7	.	.	.
CCOC(=O)N1CCN(C(=O)CSc2nnc(-c3ccc(Cl)s3)o2)CC1	100	-2.1	-33	?	.
CSc1nc(N)nc(C(C)C)n1	-2	0.6	.	0%	.
COc1ccc(C(=O)N/N=c2\oc3ccccc3cc2C(=O)NCc2ccccc2)cc1	3	0.0	-19	4%	-11
COc1ccccc1N1CCN(CCN2C(=O)C3CCCCN3C2=O)CC1 (configuration not stated)	-1	-2.4	.	.	.
CCOc1ccc(NC(=O)C(CC(=O)O)Cc2ccccc2)cc1 (configuration not stated)	-3	1.0	.	-4%	8
COc1ccc(/C=C/C(=O)NCC(=O)N=Nc2c(O)[nH]c3ccc([N+](=O)[O-])cc23)cc1	2	6.1	.	.	.
O=C(Cn1ncc2c([nH]c3ccccc32)c1=O)Nc1cccnc1	4	-2.7	.	.	.
Cc1ccc(OCc2nnc(SCC(=O)Nc3nccs3)n2-c2ccccc2)cc1C	-7	1.0	-12	5%	5
Cc1ccc2c(c1)C(=O)CC1(CCCC1)O2	-2	-0.4	.	-3%	.
O=C(CCN1C(=O)COc2ccccc21)NCCN1CCN(c2ccccc2F)CC1	-7	-0.3	-48	2%	5
Cc1ccc(C(=O)NC2CC(C)(C)NC(C)(C)C2)cc1C	-1	-0.2	-40	2%	2
CN(C)/C=N/c1cc(=O)[nH]c(=O)n1C	-8	-2.2	-4	-5%	4
c1ccc(-c2cc3c(ccc4nonc43)nn2)cc1	0	0.9	-1	-8%	-10
O=C1Nc2ccccc2N(O)N1c1cc(-c2cccc(Cl)c2)no1	?	-1.3	-39	0%	5
